GLA inh pH 4.5 – qHTS Assay for Inhibitors of Human alpha-Galactosidase at pH 4.5. Alpha-galactosidase A (Homo sapiens), P06280. purified enzyme, 4-MU-alpha-Gal fluorescence, pH 4.5. activity change, negative = inhibition, % at 105 µM. 230,000 tested, under 10 active. AID 1467, 2008; inconclusive = small, poorly fitted or top-dose-only inhibition, or a rising curve; inactive = flat fitted curve, though single readings scatter; no compound was filed as active;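 also: 0% = full activity with enzyme and -100% = basal without enzyme; dose as in the result columns while the protocol names 77 µM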
Target sequence (P06280 whole entry, looked up): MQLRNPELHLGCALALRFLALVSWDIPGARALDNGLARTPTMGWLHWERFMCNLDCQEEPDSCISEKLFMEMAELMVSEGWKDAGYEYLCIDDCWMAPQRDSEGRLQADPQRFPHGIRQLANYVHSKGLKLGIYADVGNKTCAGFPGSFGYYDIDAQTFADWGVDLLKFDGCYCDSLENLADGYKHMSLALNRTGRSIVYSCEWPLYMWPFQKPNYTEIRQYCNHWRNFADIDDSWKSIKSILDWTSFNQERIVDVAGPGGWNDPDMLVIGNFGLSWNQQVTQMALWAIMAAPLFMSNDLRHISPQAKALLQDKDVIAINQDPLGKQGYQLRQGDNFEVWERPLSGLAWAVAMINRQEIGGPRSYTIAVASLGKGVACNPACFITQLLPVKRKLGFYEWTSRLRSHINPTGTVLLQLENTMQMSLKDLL
Rango dissoc inh – qHTS Assay for Inhibitors of RanGTP induced Rango (Ran-regulated importin-beta cargo) - Importin beta complex dissociation | Snurportin-1 (Homo sapiens) + GTP-binding nuclear protein Ran (Homo sapiens) + Importin … | Biochemical FRET Rango-importin beta, RanGTP-induced dissociation | Potency, µM (series often up to 46.1 µM), inactives show at the top dose activity change, negative = inhibition | 0.071% of 340,000 active; active means falling FRET ratio curve, often poorly fitted, with flat reads before Ran was added; inconclusive means other falling curves, or compound fluorescence or quenching; inactive means flat or rising ratio curve;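 also: potency is read from the fitted curve at half-maximal effect; % of control where 0% means no effect; nearly all actives have a fitted effect of over 45% in size; -100% = wells without RanGTP and RCC1; the record marks most hits as doubtful in a second field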
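Two FRET readings bracket the reaction: one 5 min after compound meets Rango–importin beta, another 45 min after RanGTP-RCC1 (0.6 uM Ran, 0.2 uM RCC1, 2 mM GTP) is added. Only the second defines inhibition.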
miR-21 FLuc – qHTS Assay for Modulators of miRNAs and/orActivators of miR-21; HeLa miR-21 FLuc reporter, luciferase, 48 h; Potency, µM (doses to about 38.3 µM), for the others: top-dose reporter change, positive = more light; 340,000 tested, under 10 active; active = well fitted rising curve with a large enough effect; inconclusive = small, poorly fitted or top-dose-only effect; inactive = no such curve, though single readings can be large or run the other way;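 also: % of control where 0% means no effect; miR-21 action dims this reporter so a rising signal means less miR-21 action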
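Compounds were titrated across several concentrations (up to approximately 40 uM) and incubated 48 hours with HeLa miR-21-FLuc reporter cells (miR-21 target sequence downstream of FLuc, endogenous miR-21). Readout was firefly luciferase luminescence after lytic detection reagent.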
Rango complex inh – qHTS Assay for Inhibitors of Rango (Ran-regulated importin-beta cargo) - Importin beta complex formation; Rango CFP/YFP FRET sensor + importin beta, 45 min; Potency, µM (highest dose often 92.2 µM), inactives show at the highest dose inhibition of complex formation; 0.031% of 340,000 active; AID 540263, 2011; active = rising FRET ratio curve, often small or poorly fitted; inconclusive = mostly compound fluorescence or quenching in the first reads; inactive = flat curves in all reads;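 also: potency is read from the fitted curve at half-maximal effect; 0% = DMSO wells and 100% = buffer wells lacking importin beta; nearly all actives have a fitted effect of over 15% in size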
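Inhibition scored from the CFP 486 nm/YFP 530 nm FRET ratio 45 min after adding 0.125 microM importin beta to 50 nM Rango biosensor preincubated 5 min with compound (room temperature, PBS with DTT, Tween-20, BSA). No-importin wells as positive control.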
* = called active by the depositor; ? = inconclusive; · = no result given. A portion of the library; the hit share may differ from the screen's.

SMILES	GLA inh pH 4.5	Rango dissoc inh	miR-21 FLuc	Rango complex inh
COc1ccc(-c2ccc(SCC(=O)Nc3nccs3)nn2)cc1OC	6	1%	-13%	4.7%
O=C(CCNS(=O)(=O)c1ccccc1)NCC1CCCCC1	·	-7%	·	7.2%
CN(CCOc1ccccc1)CC(=O)Nc1ccc(Cl)cc1[N+](=O)[O-]	-13	1%	-9%	-1.8%
COc1ccccc1N1CCN(C(=O)c2cn(Cc3ccccc3)nc2-c2cccnc2)CC1	·	5%	·	3.2%
CCC(NC(=O)C1CCCO1)c1ccccc1 (centres undefined)	·	19%	1%	1.2%
C#Cc1cccc(C(=O)N2CCCC(C(=O)c3ccc(OC)cc3C)C2)c1 (centres undefined)	·	-12%	-9%	0.5%
CCC(Cc1ccccc1)NC(=O)c1cc(S(=O)(=O)N2CCCCC2)c[nH]1 (centres undefined)	·	9%	2%	0.3%
CC(Sc1ccc(S(=O)(=O)N(C)C)cn1)C(=O)NC1CCCC1 (centres undefined)	·	31%	·	1.4%
O=C(COc1ccccc1)Nc1ccccc1Oc1ccccc1	2	15%	-6%	5.0%
Cc1ccsc1/C=N/n1c(-c2ccncc2)n[nH]c1=S	1	1%	-4%	4.6%
C=CCn1c(SCc2ccccc2)nc2scc(-c3ccc(C)o3)c2c1=O	1	-5%	-1%	0.0%
COc1ccc(-n2c(O)c(C=NCc3ccccn3)c3ccccc3c2=O)c(OC)c1	-8	27%	-3%	0.1%
CCOc1ccc(CN2C(=O)c3ccccc3C2=O)cc1C(=O)NC1CC(C)(C)NC(C)(C)C1	·	8%	·	1.1%
COc1ccc(S(=O)(=O)Nc2ccccc2N2CCOCC2)cc1OC	·	2%	·	0.4%
COCCN1C(=O)C(O)=C(C(=O)c2cccs2)C1c1ccccc1 (centres undefined)	5	-16%	-2%	0.7%
O=C(CNc1ccc2ccccc2c1)N/N=C/c1ccc(C(=O)O)cc1	-8	-5%	-1%	1.6%
CCCCN(CCCC)C(=O)C1CC=CCC1C(=O)O (centres undefined)	6	-6%	-1%	-2.2%
O=C(Nc1ccc2c(c1)OCO2)O[C@@H]1C[C@H]2CCC(=O)N3CC[C@@H](C1)[C@@H]23	·	16%	-5%	0.0%
CC(=O)Nc1ccccc1OCc1nnc(-c2ccc(Cl)cc2)o1	0	-4%	-34%	1.5%
CCOc1ccc(NC(=O)CSc2n[nH]c(N)n2)c([N+](=O)[O-])c1	1	-2%	-5%	-0.5%
Cc1cc([N+](=O)[O-])c(C(C)(C)C)cc1N	11	6%	-6%	2.0%
CCCN1CNC(=S)N(c2cccc(C)c2C)C1	-11	18%	-5%	-1.3%
CN(c1ccc(OCC(=O)OCC(=O)Nc2ccc([N+](=O)[O-])cc2)cc1)S(=O)(=O)c1cccs1	·	-8%	·	-2.2%
Cn1c(-c2ccccc2)cc(=O)c2ccccc21	0	21%	-13%	-2.0%
CCOC(=O)CCSCC(=O)Nc1nnc(C)s1	-10	-3%	0%	2.6%
Carrying on.
SMILES	GLA inh pH 4.5	Rango dissoc inh	miR-21 FLuc	Rango complex inh
C#CCOCCOCCOCCNc1nc(N2CCN(C(=O)[C@H](CCCCN)n3cc([C@@H](N)CC(C)C)nn3)CC2)nc(N2CCN(C(=O)[C@H](Cc3cc4ccccc4[nH]3)n3cc([C@@H](N)Cc4ccc(O)cc4)nn3)CC2)n1	3	?	-1%	28%
CN(Cc1ccccc1)C(=O)c1ccccc1N(C)S(=O)(=O)c1ccccc1	·	18%	·	-1.9%
Cn1c(SCc2nnc(-c3ccccc3)o2)nc2ccccc21	5	10%	-17%	-3.7%
CN(C)/C=N/C(=S)Nc1ccccc1Cl	6	0%	-28%	0.0%
Cc1ccc(C(=O)NNC(=O)c2cc3cc4ccccc4nc3s2)cc1	-2	2%	-49%	1.1%
Cc1ccc(S(=O)(=O)N2CCN(C(=O)CSC3CCCC3)CC2)c(C)c1	-1	17%	11%	0.6%
CCOC(=O)C1CCCN(C(=O)Nc2ccccc2)C1 (centres undefined)	3	-1%	-7%	1.6%
O=C(CSc1nnnn1-c1ccccc1)c1ccc(O)cc1O	-6	13%	-26%	-0.8%
CC1CCN(S(=O)(=O)c2ccc(NC(=O)CCN3C(=O)c4ccccc4C3=O)cc2)CC1	-3	11%	3%	-1.2%
COc1ccccc1NC(=O)Nc1nc2ccc(S(N)(=O)=O)cc2s1	·	-1%	-80%	1.4%
Cc1ccccc1C(=O)Nc1ccc(N2CCN(C)CC2)nc1	-5	-10%	-19%	-4.6%
COc1cc(C=O)ccc1OCC(=O)N1CCCC1	11	1%	3%	-3.3%
COCCCN(C(=O)Nc1ccc(C)c(C)c1)C(C)c1ccccn1 (centres undefined)	6	-8%	-17%	-0.6%
COc1cccc(CNc2ccc(S(=O)(=O)Nc3nccs3)cc2)c1O	11	-10%	-3%	-2.3%
CN(c1ccccc1)S(=O)(=O)c1cccc(NC(=O)CSc2nncs2)c1	2	6%	9%	4.2%
CC(C)CN(CC(C)C)S(=O)(=O)N1CCC(C(=O)NCc2cccnc2)CC1	0	-9%	-1%	5.7%
COc1ccc(OC)c(-c2nc3ccccc3nc2-c2ccccc2)c1	-7	0%	5%	-1.0%
NNC(=O)c1cc(-c2ccccc2)sc1N	3	12%	-22%	2.0%
Cc1cccc(C(C)C)c1NC(=O)COC(=O)c1cc2ccccc2oc1=O	·	8%	·	3.3%
C=CCn1c(SCC(=O)c2ccc(O)c(O)c2)nnc1-c1ccccc1OC	-9	15%	-23%	-2.8%
CN(CCc1ccccn1)C(=O)CCC1CCCN(C(=O)CCOc2ccccc2)C1 (centres undefined)	2	2%	-2%	-2.2%
COc1ccc(C(=O)OCC#CCSc2nnc(-c3cccc4ccccc34)o2)cc1	·	?	·	-0.5%
Cc1ccccc1C1=C/C(=C(\SS/C(C(=O)c2ccc(OCC(=O)O)c(Cl)c2Cl)=C2\C=C(c3ccccc3C)SS2)C(=O)c2ccc(OCC(=O)O)c(Cl)c2Cl)SS1	·	1%	·	6.3%
Cn1c(CNC(=O)c2ccccc2)nnc1SCC(=O)Nc1nccs1	-3	1%	-3%	-0.2%
CC(C#N)(CCc1ccccn1)CCc1ccccn1	·	12%	·	1.3%
Following part
SMILES	GLA inh pH 4.5	Rango dissoc inh	miR-21 FLuc	Rango complex inh
COc1ccccc1NC(=O)CSc1nc(SC)ns1	·	0%	-40%	0.7%
Cc1ccccc1CS(=O)(=O)CC1(O)CCN(C(=O)c2cccc(C(F)(F)F)c2)CC1	-2	1%	-1%	3.2%
CCOc1cccc(/C=N/NC(=O)c2cc(-c3cccn3C)n[nH]2)c1O	-16	0%	19%	0.2%
COc1ccc(C(=O)NCCc2nnc3ccc(SCC(=O)NCCc4ccc(OC)c(OC)c4)nn23)cc1	·	-9%	0%	-3.4%
COc1cccc(/C=C/C(=O)OCC(=O)Nc2cc(C(F)(F)F)ccc2Cl)c1	-1	-2%	-12%	3.4%
CCOC(=O)c1ccc(Oc2nc(OC)nc(N(C)C)n2)cc1	-3	0%	-16%	0.1%
CC1(C(=O)O)CCC(C(=O)Nc2ccc(F)cc2)C1(C)C (centres undefined)	·	-9%	-3%	-0.3%
O=C(O)COc1ccccc1/C=N/NC(=O)CSc1nc2ccccc2s1	0	12%	-5%	1.5%
O=C1CCC(CCC(=O)N2CCCC(C(=O)c3ccc(Cl)cc3)C2)=NN1 (centres undefined)	-9	1%	-1%	-0.6%
Nc1nc(O)c(Sc2ccccc2[N+](=O)[O-])c(=O)[nH]1	·	-5%	0%	-1.2%
Brc1ccc(-c2csc3[n+]2CCCCC3)cc1	-7	-20%	4%	-5.9%
Cc1cnc(C(=O)Nc2cccc3ncccc23)cn1	-3	2%	-13%	2.1%
COc1cc(-c2noc(C)c2C(=O)NCC[C@@H]2CCCN2C)cc(OC)c1OC	·	11%	·	-1.9%
c1cncc(-c2cn(C[C@H]3CC[C@@H]([C@@H]4CC[C@H](Cn5cc(-c6cccnc6)nn5)O4)O3)nn2)c1	·	17%	2%	2.0%
Cc1c(N(C(=O)c2cnccn2)C2(C(=O)NC3CCCC3)CCCCC2)c(=O)n(-c2ccccc2)n1C	-5	19%	5%	-0.3%
COc1ccc(NC(=O)C2CCCN(S(=O)(=O)c3ccc4c(c3)CCCN4C(C)=O)C2)cc1Cl (centres undefined)	·	19%	-2%	-1.7%
COc1cccc(-c2csc(N3CCN(C(=O)NC45CC6CC(CC(C6)C4)C5)CC3)n2)c1	5	-7%	15%	-0.1%
CCC(=O)NC(=S)Nc1cccc(C(C)=O)c1	-7	0%	-3%	-1.1%
CN(Cc1ccccc1)C(=O)CN1C(=O)NC(C)(c2ccc(Cl)cc2)C1=O (centres undefined)	·	-1%	6%	-2.6%
Nc1ccc(S(=O)(=O)NC2(C(F)(F)F)NC(=O)N(Cc3ccccc3)C2=O)cc1 (centres undefined)	·	-4%	5%	-2.4%
COC(=O)c1cn(C(=O)c2cc(Cl)ccc2Cl)c2ccccc12	·	8%	-5%	5.6%
CCOC(=O)N/N=C(C)/C=C/c1ccco1	4	-1%	-28%	0.0%
CC(Oc1ccc(Cl)cc1Cl)C(=O)Nc1ccncc1 (centres undefined)	4	-8%	20%	-3.4%
COc1ccc(CN(C)C(=O)c2ccc(NS(=O)(=O)c3ccccc3)cc2)c(OC)c1	·	2%	·	-0.4%
CCOC(=O)c1cnn(-c2ccccc2)c1NC(=O)c1ccc(C)cc1	2	1%	-1%	3.4%
New compounds follow.
SMILES	GLA inh pH 4.5	Rango dissoc inh	miR-21 FLuc	Rango complex inh
CCN(CC)S(=O)(=O)c1ccc(/C=C/C(=O)OCC(=O)Nc2ccc(S(N)(=O)=O)cc2)cc1	7	28%	0%	-1.1%
O=C1NCCC/C1=N\Nc1ccc(Br)cc1	6	12%	-23%	-3.4%
COc1ccc(/C=N/NC(=O)c2ccccc2OC)cc1COc1ccccc1[N+](=O)[O-]	·	-3%	1%	1.2%
COc1ccc(CCN(CC(=O)NC(C)(C)C)C(=O)Cn2nnc(-c3ccc(C)o3)n2)cc1OC	-5	7%	-5%	-2.5%
COc1ccc(C(=O)OCC(=O)N2C(C)CCCC2C)cc1[N+](=O)[O-] (centres undefined)	5	0%	1%	2.6%
COCc1ccc(CN2CCCC(CO)(Cc3cccc(Cl)c3)C2)o1 (centres undefined)	1	-7%	-6%	-3.5%
CC(C)c1nc(SCC(=O)Nc2ccc3c(c2)OCCO3)n[nH]1	-2	6%	2%	0.1%
O=C(c1ccc2c3c(cccc13)CC2)C1CCCN(Cc2cccnc2)C1 (centres undefined)	-5	-5%	2%	7.4%
COc1cc(/C=C/C(=O)O)cc(S(=O)(=O)Nc2ccc(F)cc2)c1OC	13	3%	-16%	-0.4%
CCOC(=O)C1=C(O)/C(=C/c2cn(CC(=O)N3CCCC3)c3ccccc23)SC1=Nc1ccccc1	-9	?	-18%	?

Bioassay records: PubChem BioAssay, National Center for Advancing Translational Sciences (NCATS)
